RanGTP-Impb inh: inhibitors of RanGTP-importin-beta interaction, primary screen, biochemical, FRET, CFP-Ran, YFP-importin-beta, homogeneous; Ran GTPase (GTP-bound) - importin-beta complex; cell-free CFP-Ran/YFP-importin-beta FRET ratio; inhibition, % (concentration not given with the values); 1.1% of 300,000 active; AID 2216, 2009;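 active = most replicates above 15%; inconclusive = exactly half above 15%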;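 note: 0% = DMSO wells and 100% = Ran loaded with GDP instead of GTP; wells of about 40 µL received 100 nL stock; the first replicate is given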
Calb FLC: C. albicans growth inhibition with fluconazole, primary screen, CaCi-2 strain, Alamar Blue fluorescence; C. albicans CaCi-2 (fluconazole-resistant clinical isolate) + fluconazole, 48 h; AID 1979, 2009; 0.57% of 300,000 active; growth inhibition, % (test concentration not listed);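 active = most replicates above 75%; inconclusive = exactly half above 75%; inactive = most below 75%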;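 note: all wells also contain fluconazole at 8 µg/ml as a sub-toxic cotreatment; 0% = median of DMSO wells and 100% = median of geldanamycin control wells; wells of about 8 µL received 7.5 nL stock; the first replicate is given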
HNF4A DNA FP: change in binding of human HNF4A to DNA, primary screen, biochemical, fluorescence polarization, FITC-DNA; 0.3% of 360,000 active; 1 h; activity change, % at 10 µM; in the data active = activity change above about 30%, passing the limit was not always enough;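 note: controls were the assay level and a saturating level of protein; the project sought stronger binding though the title names inhibitors; some compounds called inactive have numbers as strong as hits; positive values seem to mean higher polarization but the record does not say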
Target sequence (P41235 whole entry, looked up): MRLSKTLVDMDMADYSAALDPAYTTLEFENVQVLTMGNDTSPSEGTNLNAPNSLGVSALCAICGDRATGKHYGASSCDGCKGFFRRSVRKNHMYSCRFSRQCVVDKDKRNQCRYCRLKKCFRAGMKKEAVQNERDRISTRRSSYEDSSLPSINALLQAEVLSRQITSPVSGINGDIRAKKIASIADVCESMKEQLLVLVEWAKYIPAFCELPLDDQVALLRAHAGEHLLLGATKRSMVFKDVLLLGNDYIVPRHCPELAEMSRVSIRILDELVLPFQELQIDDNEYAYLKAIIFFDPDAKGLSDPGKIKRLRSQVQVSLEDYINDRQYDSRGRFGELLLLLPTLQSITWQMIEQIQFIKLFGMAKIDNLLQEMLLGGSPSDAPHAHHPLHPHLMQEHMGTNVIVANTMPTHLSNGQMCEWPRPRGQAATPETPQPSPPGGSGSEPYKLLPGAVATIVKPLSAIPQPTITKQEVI
LANA-H2A inh: blockers of LANA interaction with H2A/H2B – biochemical, FP readout, HTS, primary screen; inhibition, % (test concentration not listed); cell-free LANA-H2A/H2B peptide, fluorescence polarization; 0.6% of 320,000 active; in the data active = inhibition mostly above about 10%, no sharp cut-off; inactive = mostly below about 6.7%;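 note: stock transfer was 7.5 nL into about 10 µL; 0% = median of vehicle wells and 100% = median of positive control wells; one replicate is shown; the record names a cut of 25% in any replicate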
Beta2AR agonist: beta2AR agonists driving receptor internalization, primary screen, cell-based, FAP fluorogen, flow cytometry. response, % (concentration not given with the values). Am2.2-beta2AR cells; reference of the scale not given here. Beta-2 adrenergic receptor (Homo sapiens), P07550. 0.43% of 340,000 active;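 active = response above a set limit, near 3 SD of response in nonfluorescent compounds, cut at about 42% in these data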;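 note: stock transfer was 100 nL into about 11 µL; a reference agonist was the positive control; negative values mostly stem from fluorescent compounds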
Target sequence (P07550 whole entry, looked up): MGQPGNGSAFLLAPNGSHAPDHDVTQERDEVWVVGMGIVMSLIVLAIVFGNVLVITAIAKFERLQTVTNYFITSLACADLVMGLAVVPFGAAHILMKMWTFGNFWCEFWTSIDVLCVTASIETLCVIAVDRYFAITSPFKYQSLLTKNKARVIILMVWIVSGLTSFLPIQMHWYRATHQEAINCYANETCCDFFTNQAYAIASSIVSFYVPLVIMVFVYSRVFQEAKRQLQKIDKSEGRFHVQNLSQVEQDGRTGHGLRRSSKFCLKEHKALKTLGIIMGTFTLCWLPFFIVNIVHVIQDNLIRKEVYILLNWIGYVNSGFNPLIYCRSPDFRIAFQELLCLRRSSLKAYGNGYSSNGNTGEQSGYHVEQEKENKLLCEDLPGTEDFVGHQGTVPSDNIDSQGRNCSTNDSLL
Vif TR-FRET: inhibitors of Vif binding to APOBEC3G peptide, primary screen, biochemical, TR-FRET, GST-Vif 1-94, biotin-A3G peptide, dose response retest (AID 1117319); TR-FRET GST-Vif / biotin-A3G peptide binding; higher % means a stronger effect; test concentration not given here; strong numbers were not always called active; inhibition, %; hits with a dose series show IC50 in µM; Virion infectivity factor (Human immunodeficiency virus type 1 group M subtype B (isolate …; 0.57% of 260,000 active;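 active = above the screen mean plus three standard deviations and confirmed in dose response; inconclusive = results disagree or hit not tested in dose response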;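 note: Vif residues 1-94 fused to GST binding biotinylated APOBEC3G peptide 110-148; 0% = full assay without inhibitor and 100% = GST in place of GST-Vif; retest series ran down from 100 µM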
ALR H2O2 inh: inhibitors of human ALR sulfhydryl oxidase, primary screen, biochemical, H2O2 detection, HRP-luminol luminescence, single point; FAD-linked sulfhydryl oxidase ALR (Homo sapiens), P55789; purified ALR, DTT oxidation; inhibition, % (concentration not given with the values); 3.8% of 290,000 active; AID 485317, 2010;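 active = mean and each replicate at 75% or more; inconclusive = only one of the two met; inactive = neither met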;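 note: stock transfer was 7.5 nL into about 7.5 µL; 0% = neutral wells and 100% = wells with inactivated enzyme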
Target sequence (P55789 whole entry, looked up): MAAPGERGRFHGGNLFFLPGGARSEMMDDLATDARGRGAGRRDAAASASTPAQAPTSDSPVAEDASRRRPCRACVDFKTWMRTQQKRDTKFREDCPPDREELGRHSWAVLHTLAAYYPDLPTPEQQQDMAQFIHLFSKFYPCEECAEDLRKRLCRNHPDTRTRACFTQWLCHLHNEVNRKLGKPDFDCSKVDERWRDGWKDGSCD
Starred values were filed as active, the others as inactive; ? = inconclusive; . = not tested or not shown.

SMILES	RanGTP-Impb inh	Calb FLC	HNF4A DNA FP	LANA-H2A inh	Beta2AR agonist	Vif TR-FRET	ALR H2O2 inh
Cc1ccc(-n2c(-c3cc(C)n(C)n3)n[nH]c2=S)cc1	4.0	7	1.9	-1.5	2	1%	?
C=C(c1ccccc1Cl)[n+]1ccccc1	-0.8	-2	-2.9	1.3	-2	.	.
CCc1n[nH]c2c1C(=O)CC(C)(C)C2	1.1	-1	4.5	2.0	-4	-5%	-25
C=CCOC(=O)CCC(=O)Nc1cccc2ccccc12	-1.6	?	2.6	5.7	12	?	.
CN(N)C(=S)Nc1ccc(F)cc1	3.4	5	-0.6	7.5	3	-2%	13
O=C(CNC(=O)c1ccc(Cl)c([N+](=O)[O-])c1)OC1CCCCC1=O (centres undefined)	-0.4	16	2.1	1.3	8	5%	56
CCCC(C)NC(=O)COC(=O)c1ccccc1SCC(=O)NC(C)CCC (centres undefined)	3.9	-21	0.1	-4.6	0	15%	3
CCOC(=O)Cc1cc(=O)[nH]c(/N=C(/NC(=O)c2ccccc2)Nc2ccccc2C(F)(F)F)n1	1.5	8	2.0	2.3	1	11%	1
O=C(N/N=C/c1cc2c(cc1Br)OCO2)C1COc2ccccc2O1 (centres undefined)	4.4	15	0.1	1.5	-3	.	0
Cn1cc(S(=O)(=O)N2CCOCC2)cc1C(=O)O	.	.	-0.1	-0.4	-1	-6%	-3
C/C(=N\NC(=O)CNC(=O)c1ccco1)c1ccc(Br)cc1	5.8	23	2.4	-1.4	0	-1%	-3
CCn1c(C)nc2cc(C(=O)NNS(=O)(=O)c3c(C)c(C)cc(C)c3C)ccc21	4.2	-29	11	1.7	3	-6%	12
CC(Oc1cccc(Cl)c1)C(=O)NC1CC(C)(C)NC(C)(C)C1 (centres undefined)	-0.3	11	-1.1	-4.1	-1	.	10
Cc1ccc(C(=O)CCC(=O)Nc2ccc(Cl)c(S(=O)(=O)Nc3cccc(Cl)c3)c2)cc1	1.9	-7	0.2	1.5	6	-4%	.
Cc1ccc(C)c(S(=O)(=O)N2CCN(C(=O)c3ccccc3Cc3ccccc3)CC2)c1	6.6	1	-4.1	-1.4	2	-6%	1
Cc1cc(C)cc(Nc2ccc(C(=O)O)cc2[N+](=O)[O-])c1	0.1	29	-0.8	1.2	11	-1%	-3
COc1cccc(C2c3[nH]c4ccccc4c3C[C@H]3C(=O)N(c4ccccc4C(=O)NCCCN4CCOCC4)C(=O)N23)c1 (some centres undefined)	0.4	21	3.6	0.3	3	.	99*
CCOC(=O)C(=O)Nc1nc(-c2ccccc2)c(-c2ccccc2)o1	-2.9	10	-1.4	9.0	-5	-4%	88*
Cc1cc(C)cc(NC(=S)N(Cc2ccc(Br)cc2)Cc2ccc(C(=O)O)cc2)c1	1.4	62	1.6	4.8	14	17%	13
CCn1c(N2CCN(C(=S)NCCc3ccccc3)CC2)nc2ccccc21	-0.2	-4	4.6	-2.1	-1	-6%	2
O=C(CSc1nnc2c(Cl)cc(C(F)(F)F)cn12)N(Cc1ccccc1)Cc1ccccc1	?	-1	2.6	-1.6	-20	-16%	-6
COC(=O)c1ccc(COc2ccccc2/C=C/C(=O)c2ccc(OCC(=O)O)cc2)cc1	1.6	13	3.8	-1.9	47*	.	.
O=[N+]([O-])c1cc(-c2ncccn2)c([N+](=O)[O-])s1	-3.7	-17	0.9	-0.7	12	?	98*
Cc1noc(C)c1CSc1nc2sc3c(c2c(=O)n1C)CCCC3	-0.3	28	2.4	5.3	5	-7%	0
Cc1cc(C(F)F)n2nc(C(=O)Nc3ccc(F)cc3F)nc2n1	-1.3	-3	-2.2	0.2	-10	-5%	-12
Cc1ccc(-c2nc3ccccc3o2)cc1NC(=O)Cc1cccs1	-1.3	1	-0.8	-0.3	-3	-5%	-2
Clc1cnc(N/N=C/c2cccs2)c(Cl)c1	-3.8	-9	1.0	-1.1	-5	0%	86*
O=C(COc1ccccc1C(=O)N/N=C\c1ccc(O)c(O)c1)N/N=C/c1ccc(O)c(O)c1	0.0	35	-42	-2.0	2	-10%	99*
O=C(Nc1ccccc1)n1cc(-c2ccccn2)c(N2CCOCC2)n1	2.2	9	-0.3	-6.2	-1	6%	-2
Cc1ccc(C2C(C#N)=C(N)OC3=C2C(=O)CCC3)s1 (centres undefined)	7.6	6	-0.1	-3.8	1	.	0

Complete entries as entered above. Values in the order: RanGTP-Impb inh, Calb FLC, HNF4A DNA FP, LANA-H2A inh, Beta2AR agonist, Vif TR-FRET, ALR H2O2 inh
Record of COC(=O)c1ccc(COc2ccccc2/C=C/C(=O)c2ccc(OCC(=O)O)cc2)cc1 → 1.6, 13, 3.8, -1.9, 47*, ., .
Record of O=C(Nc1ccccc1)n1cc(-c2ccccn2)c(N2CCOCC2)n1 → 2.2, 9, -0.3, -6.2, -1, 6%, -2
Record of Cc1noc(C)c1CSc1nc2sc3c(c2c(=O)n1C)CCCC3 → -0.3, 28, 2.4, 5.3, 5, -7%, 0
Record of Cc1ccc(C2C(C#N)=C(N)OC3=C2C(=O)CCC3)s1 (centres undefined) → 7.6, 6, -0.1, -3.8, 1, ., 0

(continued)
SMILES	RanGTP-Impb inh	Calb FLC	HNF4A DNA FP	LANA-H2A inh	Beta2AR agonist	Vif TR-FRET	ALR H2O2 inh
N#CCOc1ccc2oc(-c3ccco3)cc(=O)c2c1	?	-2	.	0.8	.	-10%	5
O=C(N/N=C/c1ccc(OCc2ccccc2)cc1)c1cccs1	0.1	0	-1.0	-2.3	7	-7%	-16
O=C(COC(=O)c1n[nH]c(=O)c2ccccc12)NCc1ccccc1	.	.	-1.1	1.0	-12	-19%	-2
CC12CN3CC(C)(CN(C1)C3c1ccc3c(c1)OCO3)C2=O (centres undefined)	2.3	-3	3.1	.	0	8%	.
O=C(NC1(C(F)(F)F)NC(=O)N(Cc2ccco2)C1=O)c1cccs1 (centres undefined)	-3.8	-7	-2.0	1.6	10	-8%	-2
Cc1cc(S(=O)(=O)NC2CCCCC2)ccc1OCC(=O)NCc1cccnc1	-0.1	-6	-1.7	-3.1	-9	3%	4
Oc1ccc(Cl)cc1C=Nc1ccccc1Br	1.2	-8	4.0	-0.7	-5	-2%	-7
Cc1cccc(C)c1NC(=O)/C(C#N)=C/c1ccsc1	-1.7	-26	-0.6	-2.8	3	5%	.
COc1cccc(Nc2nc(N)c([N+](=O)[O-])c(NCc3ccco3)n2)c1	-1.0	9	1.5	0.7	2	.	-2
COc1ccccc1C1CCN(Cc2ccc(Cl)cc2Cl)CC1	3.8	8	2.5	3.3	5	-2%	-69
O=C(Nc1ccccc1-c1nc2ccccc2s1)c1cccnc1Cl	?	25	2.7	1.3	8	-10%	-4
COc1ccc(CNCc2cccn2C)cc1	1.0	-1	4.8	0.0	-4	.	-10
CN(Cc1ccccc1)C(=O)c1cnc2n(c1=O)CCS2	?	37	0.2	-1.6	-4	-10%	6
CCOC(=O)/C=C1\SCC(=O)N1CCOc1cccc(Br)c1	0.5	-10	6.2	0.2	-7	-5%	-2
O=C(N/N=C\c1cc(Br)c(Br)o1)c1cncc(Br)c1	-0.2	-14	2.6	-3.6	6	.	-1
CC(C)Cn1c(N)c(C(=O)COC(=O)c2ccc(Br)cc2)c(=O)n(C)c1=O	.	.	-2.9	2.1	4	.	2
C=CCN(CC=C)CC(=O)Nc1ccc(S(N)(=O)=O)cc1	-0.6	-6	-0.3	-5.0	-3	-4%	3
O=C(CNCc1ccc(F)cc1)Nc1ccccc1[N+](=O)[O-]	?	-4	-2.4	3.9	-1	?	-3
CC(C)CNS(=O)(=O)c1ccc(S(=O)(=O)N2CCN(C3CCCC3)CC2)cc1	1.4	-5	2.2	-2.7	1	.	-3
CC/C(C)=C1\SC(N2CCOCC2)=NC1=O	3.6	-28	-0.2	5.5	4	1%	1
COc1ccc(CC(=O)N2CCC3(CC2)NCCc2[nH]cnc23)cc1	-1.1	0	-4.6	-2.4	-3	.	-4
COCCNC(=O)CSc1nc(-c2ccccc2)cs1	2.6	-4	-1.2	2.1	5	-6%	-5
O=C(Nc1ccc(F)cc1F)c1cc(=O)n(-c2ccccc2)c(=O)[nH]1	2.1	2	1.4	2.2	-6	-6%	-5
CSc1ccc(/C=C(/NC(=O)c2ccco2)C(=O)N2CCCCC2)cc1	-0.2	-3	1.0	1.9	-11	5%	3
CCOC(=O)c1[nH]c2ccc(OC)cc2c1NC(=O)C(C)N1CCSCC1 (centres undefined)	3.7	20	.	.	.	-4%	.
COC(=O)CSc1snnc1-c1ccc(F)cc1	3.1	15	-1.0	-0.7	-2	-1%	-10
COc1ccc2cc(S(=O)(=O)N3CCN(C)CC3)ccc2c1	2.2	-2	0.1	7.6	-47	24%	-10
Cc1cc(C)c2[nH]c(=O)c(CN(C(=O)C3CCCO3)C3CCCC3)cc2c1 (centres undefined)	2.6	8	.	.	.	1%	.
COc1cccc(CN2CCC(Oc3ccc(C(=O)N4CCCCC4)cc3)CC2)c1	3.1	-14	-1.2	-8.3	19	-4%	-6
Cc1ccc(NC(=S)NCc2cccs2)c(C)c1	3.7	4	-0.5	-0.4	7	32%	1
Cc1cccc(C)c1OCC(=O)NCc1ccccc1	2.1	-5	0.7	-2.4	-21	-1%	-1
COc1ccc(-c2noc(-c3ccc(Cl)cc3)n2)cc1	2.6	-7	.	-3.5	.	.	.
CC(=O)OC(C(=O)NCc1ccc(F)cc1)c1ccccn1 (centres undefined)	?	-4	-0.2	0.5	-2	4%	-7
CC1=CCC(C(=O)O)C(C(=O)Nc2cccnc2)C1 (centres undefined)	0.0	17	-0.3	2.5	-1	-5%	-7
CC(=O)c1c(C(C)=O)c(C)n(NC(=O)c2ccccc2Cl)c1C	0.6	11	4.9	0.3	4	2%	-1
Cc1ccc(NC(=O)CN(C)Cc2c(O)ccc3ccccc23)cc1	0.5	17	.	0.5	.	.	.
COc1ccc(NC2=NCC(=O)N2c2ccccc2F)c(OC)c1	3.7	9	-1.9	0.1	-8	4%	9
Nc1ccccc1SCc1cn2ccccc2n1	1.7	3	-0.4	1.7	-3	1%	24
O=C(CN1C(=O)COc2ccccc21)NCCCN1CCCC1	4.7	2	-1.6	0.0	6	-4%	-4
CC(C)(C)C(=O)C(CO)(Oc1ccc(Cl)cc1)n1cncn1 (centres undefined)	?	-3	-0.4	-5.0	-13	4%	-6
CCc1nc(NCCCN2CCOCC2)c2oc3ccccc3c2n1	0.3	5	-1.1	1.2	-11	4%	-6
COc1ccc2c(c1)c(C(=O)CN1CCCCC1)c(C)n2C	-5.7	-2	-0.6	-3.7	-4	.	-4
CSc1ccccc1NC(=O)Cn1nc([N+](=O)[O-])c(Cl)c1C	2.8	4	-3.4	1.3	1	-10%	4
CCOc1ccc(N/C(N)=N/c2nc(CSc3nnc(C)s3)cc(=O)[nH]2)cc1	1.2	0	1.1	-0.7	21	.	.
COc1cc(-c2nn3c(C4CCCCC4)nnc3s2)cc(OC)c1OC	?	15	-3.0	-7.0	6	-11%	-4
Cc1cccc(NC(=O)C2COc3ccccc3O2)c1 (centres undefined)	3.3	-40	2.4	4.1	-10	-1%	-2
CC1Cc2ccccc2N1C(=O)CN1CCC(C(N)=O)CC1 (centres undefined)	7.5	4	-1.6	0.4	-1	.	-9
CCCOc1ccccc1/C=C(\C#N)C(=O)Nc1cccnc1	-5.0	1	2.9	0.8	-1	-2%	32
CCOc1ncccc1C(=O)OCC(=O)N(CC(C)C)C1CCS(=O)(=O)C1 (centres undefined)	7.9	19	5.9	-7.2	-1	2%	0
